NS1 function inh: blocks influenza NS1 protein function; hit rate 0.4% among 270,000; AID 2326; S. cerevisiae slowed by influenza A NS1, growth recovery by OD600; Potency, µM (titrated, usually from 46.1 µM), for the others: at the top dose activity, positive = more growth; active means well fitted rising curve with a large enough effect; inconclusive means small, poorly fitted or top-dose-only effect; inactive means no such curve, though single readings can be large or run the other way; also: nearly all actives have a fitted effect of over 50% in size
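Compounds were scored for reversing the slow growth caused by influenza A NS1 in S. cerevisiae, measured by optical density at 600 nm. Assay medium contained 2% galactose at pH 6.0; NS1-free yeast of the same strain were the positive control.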
RE007 growth inh: less growth of the S. pombe RE007 Vpr strain; S. pombe RE007 Vpr strain, BacTiter-Glo ATP luminescence, 24 h; control for the full effect not named in the record; Potency, µM (highest dose often 92.2 µM), for inactives: at the top dose activity change, negative = less growth; hit rate 0.21% among 360,000; AID 651644; active = well fitted falling curve with a large enough effect; inconclusive = small, poorly fitted or top-dose-only effect; inactive = no such curve, though single readings can be large or run the other way;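 also: % is scaled to controls: 0 for no effect and ±100 for the full control effect; nearly all actives have a fitted effect of over 50% in size; the assay follows cell death caused by Vpr and the record does not say whether a fall means rescue or toxicity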
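Fission yeast RE007 carrying one integrated HIV-1 vpr copy, seeded at OD 0.01 in PMG+AL medium with 23 nL pinned compound. Grown 24 h at 30 degrees; viability read by BacTiter-Glo luminescence after 5 min.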
Lassa entry inh: Lassa virus entry inhibition; Lassa virus pseudotype entry inhibition, cell reporter; control for the full effect not named in the record; Potency, µM (series often up to 37.9 µM), for the others: at the top dose activity change, negative = inhibition, hits mostly inhibitors; hit rate 1.2% among 300,000; AID 540256; active means well fitted inhibition curve with a large enough effect; inconclusive means small, poorly fitted or top-dose-only effect, or effect the other way; inactive means flat fitted curve, though single readings scatter; tested in HEK293 cells; also: % is scaled to controls: 0 for no effect and ±100 for the full control effect; nearly all actives have a fitted effect of over 50% in size; luciferase read-out
2A StopGo: FMDV 2A StopGo reporter, luciferase signal | Potency, µM (doses to about 57.9 µM), without a hit: top-dose signal change, negative = less light | human cells with a luciferase reporter of 2A StopGo recoding; control for the full effect not named in the record | hit rate 1.2% among 410,000; active = well fitted falling curve with a large enough effect; inconclusive = small, poorly fitted or top-dose-only effect; inactive = no such curve, though single readings can be large or run the other way; tested in HEK293T cells; also: % is scaled to controls: 0 for no effect and ±100 for the full control effect; nearly all actives have a fitted effect of over 45% in size; luciferase light after 4 h
SARS PLpro yeast: inhibitors of SARS-CoV papain-like protease in yeast. S. cerevisiae expressing SARS-CoV PLpro, growth rescue; control for the full effect not named in the record. Potency, µM (doses to about 32.9 µM), without a hit: top-dose activity, positive = growth rescue. hit rate 0.19% among 330,000; active means well fitted rising curve with a large enough effect; inconclusive means small, poorly fitted or top-dose-only effect; inactive means no such curve, though single readings can be large or run the other way; also: 0% is about no effect; nearly all actives have a fitted effect of over 55% in size; growth read by luminescence after 48 h
Cruzain inh noDet: cruzain (T. cruzi) inhibition without detergent; P25779; purified cruzain, Z-FR-AMC fluorescence, no detergent; Potency, µM, for inactives: max response, negative = inhibition, usual class: inhibitors; hit rate 2.3% among 200,000;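 also: plate controls were enzyme without inhibitor for no effect and buffer without enzyme for full effect; nearly all actives have a fitted effect of over 40% in size; top concentration of the series not given in the record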
Target sequence (P25779 123-467 limits assumed): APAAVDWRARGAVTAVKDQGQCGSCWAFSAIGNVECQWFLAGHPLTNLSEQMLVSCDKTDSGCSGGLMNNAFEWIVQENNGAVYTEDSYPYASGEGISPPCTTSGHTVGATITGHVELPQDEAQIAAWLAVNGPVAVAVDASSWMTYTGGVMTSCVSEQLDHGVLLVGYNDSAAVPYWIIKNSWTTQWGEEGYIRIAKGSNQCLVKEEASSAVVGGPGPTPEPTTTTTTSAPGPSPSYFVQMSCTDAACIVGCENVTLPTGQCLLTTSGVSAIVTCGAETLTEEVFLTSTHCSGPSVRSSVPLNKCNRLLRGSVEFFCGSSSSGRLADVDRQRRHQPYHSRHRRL
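Purified cruzain at 1.5 nM, pre-incubated 15 min with compound at room temperature in 100 mM sodium acetate pH 5.5, 5 mM DTT, 0.00005% Triton X-100. Reaction started with 2 uM Z-FR-AMC; AMC fluorescence increase over 60 s gives rate.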
Marburg entry inh: blocks Marburg virus binding to or entry into cells | Marburg virus pseudotyped entry inhibition, cell reporter; control for the full effect not named in the record; about a third of the inactives were read at about 46 µM | Potency, µM (top dose mostly 37.8 µM), inactives show at the highest dose activity change, negative = inhibition, hits mostly inhibitors | hit rate 1.8% among 300,000 | AID 540276; active = well fitted inhibition curve with a large enough effect; inconclusive = small, poorly fitted or top-dose-only effect, or effect the other way; inactive = flat fitted curve, though single readings scatter; tested in HEK293 cells; about a fifth of its hits are not listed in these tables; also: % is scaled to controls: 0 for no effect and ±100 for the full control effect; luciferase read-out
Cruzain inh Det: blocks cruzain activity in presence of Triton detergent; P25779; hit rate 0.43% among 200,000; AID 1478; purified cruzain, Z-FR-AMC fluorescence, 0.01% Triton; Potency, µM, without a hit: max response, negative = inhibition, usual class: inhibitors;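 also: plate controls were neutral wells for no effect and buffer without enzyme for full effect; nearly all actives have a fitted effect of over 40% in size; top concentration of the series not given in the record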
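Sodium acetate buffer (100 mM, pH 5.5) containing 5 mM DTT and 0.01% Triton X-100 hosted 1.5 nM cruzain and test compound for 15 min at room temperature. Cleavage of 2 uM Z-FR-AMC was then tracked by fluorescence.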
Starred values were filed as active, the others as inactive; ? = inconclusive; nt = not tested or not shown; & = joins results of further samples; [ ] = dose if it differs, or a comment. Unless noted, calls follow the shape of the dose curve; as a rule, active = well fitted curve in the direction sought with a large enough effect; inconclusive = small, poorly fitted or top-dose-only effect, or another doubt; inactive = no such curve, though single readings can be large; an effect the other way counts as inactive or inconclusive. Potency is read from the fitted curve at half-maximal effect.

SMILES	NS1 function inh	RE007 growth inh	Lassa entry inh	2A StopGo	SARS PLpro yeast	Cruzain inh noDet	Marburg entry inh	Cruzain inh Det
COc1ccc(S(=O)(=O)N2CCC(C(=O)Nc3ccc4c(c3)OCCO4)CC2)cc1OC	0%	-3%	17%	?	4%	9%	5%	-1.4%
CCOC(=O)C1=C(COC(=O)CSc2ccc(C)cc2C)NC(=O)NC1C (stereo unspecified)	nt	-14%	-10%	-22%	-3%	nt	-3%	nt
CCOc1ccccc1-n1c(O)c(C=NCc2ccc3c(c2)OCO3)c(=O)[nH]c1=O	-1%	-3%	1%	-20%	2%	-7%	-3%	5.2%
CC(C)Oc1ccc(C(=O)Nc2ccc(N(C)C)cc2)cc1	-4%	5%	?	19%	4%	2%	-4%	3.2%
O=C(Nc1ccccc1-c1ccccc1)C1CCCCC1	-1%	15%	4%	-4%	24%	0%	0%	1.4%
COc1cccc(CC(=O)NNC(=O)c2c(-c3ccccc3)noc2C)c1	8%	12%	nt	-16%	1%	nt	nt	nt
CNC(=O)NNC(=O)c1csc(-c2ccc(C(F)(F)F)cc2Cl)n1	0%	-6%	2%	-24%	0%	nt	-16%[46.1 µM]	nt
CCN(CC)S(=O)(=O)c1ccc(N2CCCC2)c(NC(=O)c2ccncc2)c1	8%	-16%	nt	-5%	1%	nt	nt	nt
CCOC(=O)c1nn(-c2cccc(Cl)c2)c2nc(Nc3ccccc3)cc(=O)n12	-4%	-25%	2%	0%	5%	?	22%	-6.0%
CN1CCN(C(=O)/C=C\C(=O)O)CC1	2%	3%	1%	-28%	0%	-4%	-12%	-0.4%
CCC(=O)N1CCc2cc(S(=O)(=O)NC(Cc3ccccc3)C(=O)Nc3nccs3)ccc21 (stereo unspecified)	-7%	17%	19%&3%	1%	27%	-17%	-12%&-4%	-3.1%
COC(=O)c1cc(S(=O)(=O)Nc2cccc(-c3cnco3)c2)oc1C	2%	21%	nt	47%[activator]	2%	nt	nt	nt
CN(C)C(Cc1ccc(C#N)cc1)C(=O)c1ccccc1 (stereo unspecified)	5%	-26%	?	30%	-9%	1%	4%	-3.4%
O=C(NCc1ccccn1)Nc1ccccc1Cl	1%	14%	nt	-11%	-4%	nt	nt	nt
CC(=O)c1ccc(-n2c(C)ccc2-c2ccccc2)cc1	-6%	?	6%	-11%	-14%	2%	20%	-13%
O=C(Cc1ccc(S(=O)(=O)N2CCOCC2)s1)Nc1ccc(N2CCOCC2)cc1	nt	7%	-16%	10%	2%	nt	3%[14.2 µM]	nt
COC(=O)c1cc(S(=O)(=O)NCCc2ccc(Cl)cc2)c[nH]1	9%	6%	nt	9%	4%	nt	nt	nt
Cc1ccccc1OCC(=O)NCC(c1cccs1)N1CCOCC1 (stereo unspecified)	nt	3%	-19%	?	-3%	nt	-11%[46.1 µM]	nt
CC1CCC2(CC1)N=C(c1ccccc1)C(=O)N2CC(=O)Nc1ccc(F)c(Cl)c1 (stereo unspecified)	nt	nt	-2%[46.1 µM]	0%	nt	-21%	?	-10%
C/C(=C\c1ccccc1)CN1CCC(C(=O)N2CCC(C)CC2)CC1	-1%	6%	?	-12%	-1%	-7%	?	0.8%
COC(=O)Cc1c(O)ccn(Cc2ccc(F)cc2)c1=O	19%	8%	3%	0%	13%	2%	4%	9.0%
COc1ccc(Cl)cc1C(=O)N1CCN=C1SC	-16%	7%	nt	-26%	2%	-10%	nt	-0.3%
C=C(CN(C)C)C(=O)c1ccc(OC2OC(COC(C)=O)C(OC(C)=O)C(OC(C)=O)C2OC(C)=O)cc1 (stereo unspecified)	nt	1%	?	10µM*	nt	nt	?	nt
Cn1cccc1Cc1nnc(SCC(N)=O)n1CCc1ccccc1	-9%	-4%	-9%	-21%	13%	1%	-1%	1.6%
Cc1c(NC(=S)NC(=O)c2cc3ccccc3o2)c(=O)n(-c2ccccc2)n1C	-1%	7%	-10%	0%	2%	19%	?	-4.4%
Next section:
SMILES	NS1 function inh	RE007 growth inh	Lassa entry inh	2A StopGo	SARS PLpro yeast	Cruzain inh noDet	Marburg entry inh	Cruzain inh Det
C#CCOCCOCCOCCNc1nc(N2CCOCC2)nc(N2CCN(C(=O)[C@H](Cc3ccc(O)cc3)n3cc([C@@H](N)C(C)CC)nn3)CC2)n1 (stereo partly specified)	2%	-4%	nt	14%	0%	nt	nt	nt
Cc1ccc2[nH]c(=O)c(CN(C(=O)c3cccs3)c3ccccc3)cc2c1	5%	6%	-11%	?	1%	17%	?	1.0%
COc1ccc2nc(N3C(=O)CC(Cc4cc(C)cc(C)c4)C3=O)sc2c1 (stereo unspecified)	-62%	0%	-3%	-14%	-29%	-5%	-8%	-5.1%
COc1ccc(CC(=O)N2CCN(c3ccccc3OC)CC2)cc1OC	5%	-23%	-14%	0%	-4%	nt	-8%	nt
CCOc1ccc(-n2ccnc2SCC(=O)Nc2ccc3c(c2)OCO3)cc1	nt	nt	7%[46.1 µM]	-16%	nt	-1%	nt	-4.5%
CN1C/C(=N\S(=O)(=O)c2ccccc2)N(C)C1=O	0%	nt	-9%	-11%	-1%	-9%	?	1.9%
O=C(COc1ccc(F)cc1Br)N1CCc2ccccc21	2%	-9%	1%	72%[activator]	-4%	-4%	?	2.5%
Cn1cc(S(=O)(=O)Nc2ccc(Cl)cc2Cl)c(=O)n(C)c1=O	-11%	-4%	nt	-4%	2%	nt	nt	nt
Cc1ccc(NC(=O)C2CCN(S(=O)(=O)c3ccc4[nH]c5c(c4c3)CCCCC5)CC2)cc1	nt	nt	-7%[46.1 µM]	-24%	nt	13µM*	nt	0.0%
COc1cccc(NC(=O)/C(C#N)=C\c2cn(Cc3ccc(C)cc3)c3ccccc23)c1	nt	nt	-1%[46.1 µM]	-11%	nt	7.9µM*	nt	-2.1%
Cc1ccc(C2C(=O)N(C3CCCCCC3)CC(=O)N2C(C)C)cc1 (stereo unspecified)	nt	nt	?	-9%	nt	7%	nt	-0.5%
c1ccc(Cn2nnc3c(N4CCCC4)ncnc32)cc1	-21%	3%	3%	-1%	-5%	3%	?	1.2%
CCN(CC)C(=O)/C(=C\c1cccc([N+](=O)[O-])c1)NC(=O)c1ccco1	-3%	2%	3%	36%[activator]	-13%	1%	8%	-1.6%
CCCC(=O)Nc1nc2nc(-c3ccccc3)cc(=O)n2[nH]1	-3%	-1%	8%	33%	5%	-1%	8%	0.2%
Cc1cc(C(=O)COc2ccc(C#N)cc2)c(C)n1C1CC1	nt	-7%	3%	-15%	0%	nt	3%[46.1 µM]	nt
O=S(=O)(NC1CCCCC1)c1ccc(Cl)s1	-14%	0%	5%	nt	-13%	0%	1%	-1.3%
CC(C)c1ccc(C(=O)NN2CCOCC2)cc1	20%	6%	nt	-4%	-3%	nt	nt	nt
COC(=O)C1=C(C)NC(=O)NC1c1ccco1 (stereo unspecified)	nt	7%	-19%[46.1 µM]	3%	0%	nt	?	nt
O=C(CCS(=O)(=O)c1ccccc1)Nc1nnc(C(F)(F)F)s1	6%	-7%	?	-21%	-4%	nt	?	nt
COc1ccc2c(c1)c(CC(=O)NCc1cc([N+](=O)[O-])ccc1O)c(C)n2C(=O)c1ccc(Cl)cc1	?	-8%	8%	40µM*	6%	nt	-10%	nt
O=C(c1cccs1)N1CCN(c2ccc(Cl)cc2)CC1	-30%	?	9%[46.1 µM]	8%	-4%	nt	?	nt
O=C(Oc1ccc(O)cc1)C12CC3CC(CC(C3)C1)C2	-30%	-9%	nt	-6%	-1%	nt	nt	nt
CN(Cc1ccccc1)C(=O)CC(c1ccccc1)c1cc(Cl)ccc1O (stereo unspecified)	10%	2%	?	?	-1%	8%	-51%	-8.8%
COC(=O)C(NC(=O)CNS(=O)(=O)c1ccc(Br)cc1)c1ccccc1 (stereo unspecified)	nt	12%	-6%	-4%	3%	nt	2%[46.1 µM]	nt
O=C(CSc1nnnn1Cc1ccccc1)Nc1cccc(F)c1	-5%	0%	5%	19%	0%	nt	24%[46.1 µM]	nt
Next part:
SMILES	NS1 function inh	RE007 growth inh	Lassa entry inh	2A StopGo	SARS PLpro yeast	Cruzain inh noDet	Marburg entry inh	Cruzain inh Det
CCCCNC(=O)CSc1nc2ccccc2c(=O)n1CC1COc2ccccc2O1 (stereo unspecified)	11%	13%[3.69 µM]	-1%	0%	0%	-4%	-2%	-1.7%
Cc1sc2c(c1C)c(=O)n(-c1ccccc1)c1nncn21	1%	3%	-17%	-2%	1%	16%	?	4.9%
O=C(c1ccco1)N1CCN(C(=O)C2(S(=O)(=O)c3ccc(Cl)cc3)CC2)CC1	-4%	4%	-8%	-14%	-5%	5%	7%	2.6%
COc1ccc(OC)c(NC(=O)c2cc3ccccc3o2)c1	-11%	243%	4%	31%[activator]	-3%	-5%	-11%[46.1 µM]	-1.0%
OCCC1CN(Cc2ccc3nsnc3c2)CCN1CCc1ccccc1 (stereo unspecified)	-3%	-12%	1%	-27%	0%	nt	-23%[46.1 µM]	nt
CCOC(=O)c1c(-c2ccc(C)cc2)csc1NC(=O)c1cc(=O)c2cc(C)ccc2o1	nt	nt	-2%[46.1 µM]	-5%	nt	-23%	-1%[46.1 µM]	-1.7%
Nc1no[n+]([O-])c1-c1ccccc1	0%	-1%	-17%	3%	-6%	nt	-26%&-26%[14.2 µM]	nt
CC1SC(=S)N(c2ccc(N(C)C)cc2)C1=O (stereo unspecified)	-40%	?	4%[46.1 µM]	0%	-5%	nt	1%[46.1 µM]	nt
CC(=O)Nc1ccc(C=C(C(C)=O)C(C)=O)cc1	2%	3%	-8%	32µM*	-2%	nt	-12%	nt
CCN(CC)CCNC(=O)c1ccc2c(c1)ncn2C1CCCCC1	-7%	-4%	3%	-11%	6%	-6%	2%	-3.3%
COc1ccc(N2CCN(C(=O)COc3ccc4c(C)c(C)c(=O)oc4c3C)CC2)cc1	-1%	20%	nt	2%	2%	nt	nt	nt
O=C(CSc1ncnc2c1cnn2Cc1ccccc1)Nc1ccc2c(c1)OCCO2	-20%	-24%	-12%	0%	-3%	-1%	-22%	-2.6%
Cn1c(CN2CCOCC2)nnc1SCC(=O)Nc1ccc([N+](=O)[O-])cc1O	-1%	10%	-6%	-24%	1%	nt	-2%	nt
